Screening data (PubChem)
HPGD block = HPGD (human) dehydrogenase inhibition; P15428; Potency, µM, for inactives: at the top dose activity change, negative = inhibition, usual class: inhibitors; purified HPGD, NADH fluorescence kinetic, PGE2 substrate; 150,000 compounds, 4.3% hits; AID 894; active = well fitted inhibition curve with a large enough effect (not every such curve was filed as active); inconclusive = small, poorly fitted or top-dose-only effect, or another doubt; inactive = no such curve, though single readings can be large or run the other way;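 further: top concentration of the series not given in the record; plate controls included wells without enzyme; inactives centre near -10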
Target sequence (P15428 whole entry, looked up): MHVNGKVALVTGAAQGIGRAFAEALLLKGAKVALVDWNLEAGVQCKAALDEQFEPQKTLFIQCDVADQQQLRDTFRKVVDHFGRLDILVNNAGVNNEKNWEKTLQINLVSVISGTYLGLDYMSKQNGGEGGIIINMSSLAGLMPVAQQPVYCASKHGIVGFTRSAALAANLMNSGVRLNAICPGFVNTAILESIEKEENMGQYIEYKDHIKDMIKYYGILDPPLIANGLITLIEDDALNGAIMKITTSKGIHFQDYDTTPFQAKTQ
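NADH formation kinetics: reaction with 30 uM PGE2 and 1 mM NAD+ (final), 20 nM enzyme, Tris-HCl pH 8 with Tween 20, after 15 min compound preincubation at room temperature. Fluorescence change, last versus first of five reads.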
Numbers without * were called inactive; ? = inconclusive; & = joins results of further samples. On the % scale 0 is the no-effect control and ±100 the full control effect; potency means the concentration at half of the fitted maximal effect. The list is partial; the hit share may differ from the screen's.

SMILES	HPGD block
C=C1C(O)C2OC3(CCC(/C=C/C(C)C4CC(C)=CC5(OC(CC(C)(O)C(=O)O)CCC5O)O4)O3)CCC2OC1C(O)CC(C)C1OC2(CCCCO2)CCC1C (stereo unspecified)	-2%
Nc1ncnc2c1ncn2[C@@H]1O[C@@H]2CO[P@](=O)(S)O[C@H]2[C@H]1O	-10%
CN1[C@@H]2CC[C@H]1CC(OC(=O)c1cc(Cl)cc(Cl)c1)C2 (stereo partly specified)	-7%
CO[C@H]1CC=C2CCN3CCC4=C(CC(=O)OC4)[C@]23C1	6%&-2%
Cc1ccc(C(O)(C(=O)NNC(=O)CN2CCN(C)CC2)c2ccc(C)cc2)cc1	-11%
CCOC(=O)C(O)(c1ccc(N=Cc2ccccc2O)c(C)c1)C(F)(F)F (stereo unspecified)	-13%
Cc1ccc2nc(N3CCN(C)CC3)[nH]c2c1	-13%
CCNCCC1(CC)C(=O)NC(=O)NC1=O	-3%
COc1ccc(CCn2c(O)c(C=NCCCn3ccnc3)c(=O)[nH]c2=O)cc1OC	-11%
CC(=O)C1CC[C@H]2C3CC[C@@H]4CC(O)CC[C@@]4(C)C3CC[C@]12C (stereo partly specified)	-8%
COc1ccc(CN2CCN(C(=O)COc3cccc(C)c3)CC2)c(OC)c1	-15%
O=C(c1ccccc1)C(CN1CCCC1)c1ccccc1 (stereo unspecified)	-6%
COc1ccccc1-n1c(O)c(C=NCCN2CCNCC2)c(=O)[nH]c1=O	-5%
Cc1ccc2c(c1)C1CN(C)CCC1N2C(=O)Nc1cccc(Cl)c1 (stereo unspecified)	-1%
CCOP(=O)(OCC)C(NC(=O)c1ccccc1)C(Cl)(Cl)Cl (stereo unspecified)	-10%
Oc1cc(O)c2c(c1)OC(c1cc(O)c(O)c(O)c1)C(O)C2 (stereo unspecified)	16µM*
CCCCOC(=O)c1ccccc1C(=O)OCc1ccccc1	-12%
CN(CCC(N)CC(=O)NC1C=CC(n2ccc(N)nc2=O)OC1C(=O)O)C(=N)N (stereo unspecified)	-16%
Cc1ccc(C)c(NC2=NCCCS2)c1	1%
COC(=O)[C@]1(C)C[C@H]1[C@H](NP(=O)(c1ccccc1)c1ccccc1)c1ccccc1	-4%&1%

Brought forward from above: 2 entries, then new ones.
SMILES	HPGD block
Cc1ccc(C)c(NC2=NCCCS2)c1	1%
COC(=O)[C@]1(C)C[C@H]1[C@H](NP(=O)(c1ccccc1)c1ccccc1)c1ccccc1	-4%&1%
c1ccc(-c2ccc(C(c3ccccc3)n3ccnc3)cc2)cc1 (stereo unspecified)	?
O=c1[nH]c(=O)n(-c2cccc3ccccc23)c(O)c1/C=N/N1CCCCC1c1cccnc1 (stereo unspecified)	-13%
COCCCOc1ccnc(CS(=O)c2nc3ccccc3[nH]2)c1C (stereo unspecified)	?
Cc1coc2c1CCC(C)C2 (stereo unspecified)	-5%
CC(=O)OC[C@]12C[C@H](OC(=O)CC(C)C)C(C)=C[C@H]1O[C@H]1[C@H](O)[C@@H](OC(C)=O)[C@@]2(C)[C@]12CO2	-1%
Cc1ccc(/C=C/C2=NN(Cc3ccc(Cl)c(Cl)c3)C(=O)CC2)cc1	?
O=C(c1ccc2c(=O)n(Cc3ccc4c(c3)OCO4)c(=S)[nH]c2c1)N1CCC2(CC1)OCCO2	32µM*
O=C(CN1CCCCC1)NCC(=O)Nc1ccc(Br)cc1C(=O)c1ccccc1	28µM*
CN1c2ccc([N+](=O)[O-])cc2CC2(C(=O)NC(=O)N(c3ccc(Br)cc3)C2=O)C1c1ccccc1 (stereo unspecified)	-14%
CC(C)c1cc2c(c(O)c1O)[C@@]1(C(=O)O)CCCC(C)(C)[C@@H]1CC2	16µM*
CNC(=O)N(C)c1nnc(C(C)(C)C)s1	-2%&-10%
CCCCOCCCn1c(N)c(C(=O)OCCOC)c2nc3ccccc3nc21	?
CC1CCCC(=O)CCC/C=C/c2cc(O)cc(O)c2C(=O)O1 (stereo unspecified)	-22%
c1ccc(C2CO2)cc1 (stereo unspecified)	-8%
CCN1CCN(c2cc(N3CCCC3)c(F)cc2[N+](=O)[O-])CC1	-20%
Cn1c(O)c(C(=NCCN2CCCCC2)c2ccccc2Cl)c(=O)n(C)c1=O	-5%
c1cc(CN2CCCC3(CCNCC3)C2)ccn1	-11%
CC[C@]1(O)C(=O)OCc2c1cc1n(c2=O)Cc2cc3ccccc3nc2-1	?
C=CCn1c(O)c(C(C)=NCCN2CCOCC2)c(=O)[nH]c1=O	-17%
NCC(O)c1cc(O)c(O)cc1F (stereo unspecified)	-18%
Cn1c(O)c(C=Nc2ccccc2Sc2ccccc2)c(=O)n(C)c1=O	?
O=C1CC(N2CC=C(c3ccc(F)cc3)CC2)C(=O)N1c1ccc(F)cc1 (stereo unspecified)	-8%
Cc1ccc(N2C(=O)/C(=C/N3CCN(C(=O)c4ccco4)CC3)C(=O)NC2=S)cc1C	-13%
Fc1ccc(CNCCc2ccccc2F)cc1	-16%
CC(C)CN1CCC2(CC1)CCN(C(=O)Oc1ccccc1)CC2	2%
CC12CCCCC1=[N+]([O-])CN2O (stereo unspecified)	-3%
CC(=O)OC1CC2C(C)(C)C(=O)C=C[C@]2(C)C2CC[C@]3(C)C(=CC(=O)OC3c3ccoc3)[C@]12C (stereo partly specified)	-5%
O=C(c1ccc2c(c1)ncn2C1CCCCC1)N1CCC2(CC1)OCCO2	7.9µM*
O=c1cccc2n1CC1CC2CN2CCCC[C@H]12 (stereo partly specified)	-17%
COC(=O)Nc1nc2ccccc2[nH]1	-2%
CN(C)NC(=O)CCC(=O)O	-5%
CCOP(=O)(OCC)C(NC(=O)c1ccc(C)cc1)=C(Cl)Cl	-6%
CCCCCCn1c(O)c(C=NC2CCN(Cc3ccccc3)CC2)c(=O)[nH]c1=O	-13%
CCOC(=O)C1=C(C)NC(C)=C(C(=O)OC)[C@@H]1c1cccc(Cl)c1Cl	?
COc1ccc(C2NCc3ccc4c(c3-n3cccc32)OCO4)cc1O (stereo unspecified)	-12%
[O-][Cl+2]([O-])O	-7%
COc1ccc(C2=NCC(=O)N(CC(=O)NCc3ccco3)c3sc4c(c32)CCCC4)cc1	-6%
Cc1nn(Cc2ccccc2)c(Cl)c1C(=O)OC(C)C(=O)Nc1ccc(F)cc1Cl (stereo unspecified)	1%
O=c1[nH]c(=O)n(CCC2=CCCCC2)c(O)c1C=NC1CCN(Cc2ccccc2)CC1	-8%
CCOC(=O)c1c(C)n(Cc2ccco2)c2c1cc(O)c1ccccc12	-16%
CCC(=NCCC(c1ccccc1)c1ccccc1)c1c(O)[nH]c(=O)[nH]c1=O	-12%
CN1Cc2ccccc2[C@@H]2c3cccc4[nH]cc(c34)C[C@H]21	-27%
COC(=O)Nc1cccc(OC(=O)Nc2cccc(C)c2)c1	-27%
O=C(COc1ccc(Cl)cc1)N1CCN(Cc2ccccc2)CC1	1%
Oc1c(Cl)cc(Cl)cc1CN1CCN(Cc2ccccc2)CC1	-12%
CC(C)[C@@]1(NC(=O)[C@@H]2C[C@H]3c4cccc5[nH]cc(c45)C[C@@H]3N(C)C2)O[C@]2(O)[C@H]3CCCN3C(=O)[C@H](Cc3ccccc3)N2C1=O	-4%
COc1ccc2c3c1O[C@H]1C(=O)CC[C@H]4[C@@H](C2)N(C)CC[C@]314	-9%
COC(=O)C(c1ccccc1)N1CCCCCC1 (stereo unspecified)	-8%
CCC12CN3CCN(CC(C3)C1O)C2 (stereo unspecified)	4%
O=c1[nH]c(=O)n(Cc2ccc(F)cc2)c(O)c1C=NCCN1CCCCC1	-11%

New compounds follow:
SMILES	HPGD block
CC(=NCCCN1CCOCC1)c1c(O)n(Cc2ccccc2)c(=O)[nH]c1=O	?
COc1ccc(C(=O)C(Cc2ccccc2)N(C)C)cc1 (stereo unspecified)	-4%
OC(c1ccc(F)cc1)C(c1ccccc1)N1CCOCC1 (stereo unspecified)	-1%
CC(=O)[O-].CC(=O)[O-].O.O.O.[Pb+2]	0%&-3%
CN1CCN(c2ccc([N+](=O)[O-])c(NCc3ccco3)c2)CC1	-19%
CCCC(C)C1(CC)C(=O)NC(=Nc2ccc(F)cc2)NC1=O (stereo unspecified)	2%
CC1CCC(C(C)C)C(OP(N)(=O)c2ccccc2)C1 (stereo unspecified)	-10%
COc1ccc(CN2CCN(C(=O)Cc3ccccc3)CC2)c(OC)c1	-2%
CN1C(=O)C(=Cc2ccccc2OCc2ccccc2Cl)C(=O)N(C)C1=O	16µM*
CC12CCC3C(CCC4=C(O)C(=O)CCC43C)C1CCC2=O (stereo unspecified)	4%
CCCCCCn1c(O)c(C=NCCCn2ccnc2)c(=O)[nH]c1=O	-2%
Cl/C=C\Cl	-1%
COc1ccc(N=Cc2c(O)n(CC3CCCO3)c(=O)[nH]c2=O)cc1 (stereo unspecified)	?
O=c1c2ccccc2nc(-c2ccco2)n1-c1cccnc1	-3%
CCc1ccc2c(CN3CC=C(c4ccccc4)CC3)cc(=O)oc2c1	-14%
O=S1(=O)N(CCN2CC=C(c3c[nH]c4cc(F)ccc34)CC2)c2cccc3c2N1CCC3	-20%
CC(CO)(CO)N=Cc1c(O)n(-c2cccc3ccccc23)c(=O)[nH]c1=O	-4%
COc1ccccc1CCNCc1cc2c(cc1[N+](=O)[O-])OCO2	-4%
COc1ccc(C2NCc3ccc4c(c3-n3cccc32)OCO4)cc1OC (stereo unspecified)	-2%
CCC(=NC1CC1)c1c(O)n(-c2ccc(OC)cc2)c(=O)[nH]c1=O	-11%

Among those listed so far, these contain sulfur:
SMILES	HPGD block
Nc1ncnc2c1ncn2[C@@H]1O[C@@H]2CO[P@](=O)(S)O[C@H]2[C@H]1O	-10%
Cc1ccc(C)c(NC2=NCCCS2)c1	1%
COCCCOc1ccnc(CS(=O)c2nc3ccccc3[nH]2)c1C (stereo unspecified)	?
O=C(c1ccc2c(=O)n(Cc3ccc4c(c3)OCO4)c(=S)[nH]c2c1)N1CCC2(CC1)OCCO2	32µM*
CNC(=O)N(C)c1nnc(C(C)(C)C)s1	-2%&-10%
Cn1c(O)c(C=Nc2ccccc2Sc2ccccc2)c(=O)n(C)c1=O	?
Cc1ccc(N2C(=O)/C(=C/N3CCN(C(=O)c4ccco4)CC3)C(=O)NC2=S)cc1C	-13%
COc1ccc(C2=NCC(=O)N(CC(=O)NCc3ccco3)c3sc4c(c32)CCCC4)cc1	-6%
O=S1(=O)N(CCN2CC=C(c3c[nH]c4cc(F)ccc34)CC2)c2cccc3c2N1CCC3	-20%

(further entries)
SMILES	HPGD block
Cn1ccnc1P(=S)(c1nccn1C)N1CCOCC1	25µM*
CC1(C)N=C(c2ccccc2)[C@@H]2C(c3ccc([N+](=O)[O-])cc3)N21 (stereo partly specified)	-4%
COc1cc(C2SCC(=O)Nc3c2c(=O)[nH]n3C2CCCCCC2)cc(OC)c1OC (stereo unspecified)	-1%
COc1cccc(-n2c(O)c(C=Nc3c(C)n(C)n(-c4ccccc4)c3=O)c(=O)[nH]c2=O)c1	-15%
O=C(Cn1ncc2c3ccccc3n(Cc3ccccc3)c2c1=O)N1CCC2(CC1)OCCO2	-23%
CC(C)Nc1ccc(Nc2ccccc2)cc1	-14%
CC12CN3CN(C1)CC(C)(C3)C2=NO	3%
CN1C(=O)NC(=O)C(C)(C2=CCCCC2)C1=O (stereo unspecified)	-7%
CC[C@@]1(O)C(=O)OCc2c1cc1n(c2=O)Cc2cc3ccccc3nc2-1	?
CCOC(=O)C1=C(N)Oc2c(c(=O)oc3ccccc23)C12C(=O)N(C)c1ccccc12 (stereo unspecified)	-3%
CC(C)CCP(=O)(O)c1ccccc1	-4%
CC(C)c1ccc(C(O)(C(=O)O)c2ccc(C(C)C)cc2)cc1	-1%
O=C(OCC1O[C@@H](OC(=O)c2cc(O)c(O)c(O)c2)[C@@H](OC(=O)c2cc(O)c(O)c(O)c2)[C@@H](OC(=O)c2cc(O)c(O)c(O)c2)[C@@H]1OC(=O)c1cc(O)c(O)c(O)c1)c1cc(O)c(O)c(O)c1 (stereo partly specified)	10µM*
CC(C)c1ccc(C(c2c(O)c3ccccc3oc2=O)c2c(O)c3ccccc3oc2=O)cc1	-19%
O=c1c2ccccc2nc(-c2ccccc2)n1-c1ccncc1	-7%
C=CCNC(=O)c1c(N)n(CCN2CCOCC2)c2nc3ccccc3nc12	?
C#CCN(C)[C@@H](C)Cc1ccccc1	-1%
CCOP(=O)(NC(C)C)Oc1ccc(SC)c(C)c1 (stereo unspecified)	5.6µM*
COc1ccc(/C=C2/C(=O)NC(=O)N(c3ccc(C)c(C)c3)C2=O)cc1CN1C(=O)c2ccccc2C1=O	10µM*
CCCCCCn1c(O)c(C=NCCN2CCOCC2)c(=O)[nH]c1=O	-6%
C/C(=N\N1CCCCC1c1cccnc1)c1c(O)n(C2CCCCC2)c(=S)[nH]c1=O (stereo unspecified)	-5%
CCOc1cc(C=C2C(=O)NC(=O)NC2=O)ccc1OS(=O)(=O)c1ccccc1	13µM*
CN(C)CC1CSCCC1(O)c1ccc(Cl)cc1 (stereo unspecified)	-5%
OC1(c2ccc(F)cc2)CCNC1 (stereo unspecified)	-7%
CN1CC[C@]2(C)c3cc(O)ccc3N(C)[C@@H]12	-5%
COc1cccc(C2=NOC(C(=O)N3CCC4(CC3)OCCO4)C2)c1 (stereo unspecified)	-14%
Cc1nn(Cc2ccccc2)c(C)c1C(=O)OCC(=O)Nc1ccccc1SCC#N	-5%
COc1ccc(/C=C2\C(=N\O)C3CCN2CC3)cc1	-16%
CCOc1cccc(CNC2CN3CCC2CC3)c1 (stereo unspecified)	-5%
Cc1o[nH]c(=O)c1C[C@H](N)C(=O)O	4%&-4%&-7%
O=c1[nH]c(=O)n(C2CCCCC2)c(O)c1C=NCCCn1ccnc1	-16%
CCN1C[C@]2(C)CC[C@H](O)[C@@]34[C@@H]5C[C@@H]6[C@@H](OC)C[C@@](O)(C5[C@H]6O)[C@@H](C[C@@H]23)[C@@H]14	-9%
